Source: PubChem BioAssay (several laboratories)
UUG fidelity: yeast start codon fidelity modulation; S. cerevisiae UUG-firefly luciferase reporter, luminescence/redox ratio; activity score, % at 18.7 µM; actives 0.13% (n = 350,000);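 active = replicate mean at a twofold rise or more, about +100% in these data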;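 also: firefly luciferase made from a UUG start codon reports start codon fidelity; reporter light over untreated wells divided by growth signal over untreated wells; some hits fall short of that in this replicate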
Env fusion inh: blocks HIV Env-driven cell-cell fusion | HeLa-JRFL Env/CEM21 cell fusion, luciferase | inhibition, % at 12.3 µM | actives 1.1% (n = 360,000);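 active = mean replicate inhibition score of at least 50 and every replicate individually at or above 50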;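 also: 0% = plate neutral controls and 100% = maraviroc near 300 nM; one replicate is shown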
Rce1 inh: yeast Ras-converting enzyme inhibition | Q03530 | yeast membranes, quenched prenylated peptide cleavage fluorescence | calls only | actives 0.27% (n = 290,000) | AID 2563;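 active = fall in fluorescence gain of 50% or more versus controls, with final raw signal at or below 3038400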;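 also: plate controls were neutral control wells for no effect and wells lacking membranes for full effect; tested at 10 µM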
Target sequence (Q03530 whole entry, looked up): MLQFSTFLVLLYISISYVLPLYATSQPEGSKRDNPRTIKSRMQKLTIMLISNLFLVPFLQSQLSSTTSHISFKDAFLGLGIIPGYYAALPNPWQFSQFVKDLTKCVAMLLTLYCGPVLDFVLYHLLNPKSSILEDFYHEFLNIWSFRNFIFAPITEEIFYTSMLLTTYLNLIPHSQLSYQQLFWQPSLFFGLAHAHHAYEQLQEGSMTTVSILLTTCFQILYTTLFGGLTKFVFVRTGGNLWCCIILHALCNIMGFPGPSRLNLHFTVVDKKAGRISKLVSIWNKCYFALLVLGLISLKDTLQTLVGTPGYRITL
PABP FP inh: PABP-poly(A) binding inhibition | P11940 | PABP-poly(A) RNA binding, fluorescence polarization | inhibition, % at 35 µM | actives 1% (n = 290,000) | AID 2014;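 active = 50% or more with normal probe brightness, or confirmed in later tests; about a fifth of its hits are not listed in these tables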;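 also: calls also rest on retests at 20 µM and on dose response follow-up; controls were probe without protein and protein plus probe with vehicle; some compounds called inactive have numbers as strong as hits; many hits fall short of the cut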
CSC inhib: cancer stem cell inhibition | inhibition, % at 7.5 µM | cancer stem cell-like cells viability, luminescence | AID 2717 | actives 1.1% (n = 300,000);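 active = mean at 75% or more and at least half the replicates too; tested in HMLE shEcad cells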;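 also: 0% = median of negative and 100% = median of positive control wells; the first replicate is given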
MT1-MMP act inh: inhibitors of human MT1-MMP activation. actives 0.061% (n = 360,000). HT1080 RFP-PRO-GFP cells, GFP/RFP ratio fluorescence, overnight; percent of plate control window, DMSO zero. P50281. GFP/RFP ratio change, % at 20 µM. AID 651647;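 active = GFP/RFP ratio change of at least 30% with cell ATP level not reduced by more than half and red fluorescence within 50% of control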; also: strong numbers were not always called active
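Assay system: HT1080 cells carrying an RFP-PRO-GFP reporter | Dosing: Single dose of 20 µM compound, 1% DMSO final | Incubation: Cells overnight before dosing, compound overnight, 37 °C, 5% CO2 | Evaluation: GFP/RFP fluorescence ratio | Control set: DMSO and RFP-L50D-GFP cell wells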
eIF4H inh: inhibitors of RNA binding by human eIF4H; Q15056; eIF4H fluorescence polarization binding assay; inhibition, % at 35 µM; actives 0.94% (n = 290,000);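 active = 50% or more with normal probe brightness, or confirmed in later tests; about a fifth of its hits are not listed in these tables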;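 also: calls also rest on retests at 20 µM and on dose response follow-up; 0% = protein and probe with vehicle and 100% = probe without protein; strong numbers were not always called active; many hits fall short of the cut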
eIF4H inh retest: second read-out of eIF4H inh, no call of its own (marks repeat the call); inhibition, %; compound at 20 µM; confirmation average;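 mean of two retest wells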
PABP FP inh retest: further read-out of PABP FP inh, marked with its call; inhibition, %; compound at 20 µM; confirmation repeats;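 mean of two retest wells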
MT1-MMP act inh RFP: further read-out of MT1-MMP act inh, marked with its call; RFP signal change, %; measured here: RFP expression control read;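 0 = vehicle wells; hits needed this value within 50% of zero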
Numbers without * were called inactive; i = inactive; x = not tested or not shown; [ ] = another dose, or the depositor's remark.

SMILES	UUG fidelity	Env fusion inh	Rce1 inh	PABP FP inh	CSC inhib	MT1-MMP act inh	MT1-MMP act inh RFP	eIF4H inh	others
CCc1cc(C(=O)OC)c(NC(=O)CC2Sc3ccc(C(F)(F)F)cc3NC2=O)s1 (stereo unspecified)	-8	-20	i	-4	6	0	5	2
Cc1cc(C(=O)Nc2c(C)n(C)n(-c3ccccc3)c2=O)on1	-9	-4	i	-4	-15	-3	1	-6
N#Cc1ccccc1CSc1nc2ccc(NC(=O)c3ccccc3C(=O)O)cc2s1	x	14	x	11	-7	-1	0	-1
COCCOC(=O)c1[nH]c2c(c1C)C(=O)CC(c1cc(OC)ccc1OC)C2 (stereo unspecified)	-24	-169	i	-13	54	-6	-17	5
CN1CCN(C(=O)c2ccc(S(=O)(=O)c3ccc(Br)cc3)cc2)CC1	-8	x	i	-3	-2	0	-3	2
CCc1nc(CN(C)C(=O)C2CCC(=O)N(CCc3cccc(F)c3)C2)no1 (stereo unspecified)	-9	-3	i	0	-15	0	5	-4
CC(OC(=O)c1cccs1)C(=O)NCc1ccco1 (stereo unspecified)	1	-104	i	-6	0	1	-1	1
O=C(NC(=S)NNS(=O)(=O)c1ccccc1)c1ccccc1[N+](=O)[O-]	x	4	i	8	-23	-1	1	20
O=[N+]([O-])c1ccccc1COc1ccc(Cl)c2cccnc12	-15	-117	i	-1	3	1	4	4
Nc1ccc(C(=O)C(=O)c2ccccc2)cc1	-15	-20	i	x	-9	5	4	x
Cc1cccc(C)c1OCC(O)CNS(=O)(=O)c1ccccc1C(=O)N1CCOCC1 (stereo unspecified)	13	x	i	-6	x	1	0	-1
Cc1cc(NC(=O)CSc2ccc(-c3ccc(F)cc3)nn2)no1	-11	-17	i	-8	-1	7	3	-3

Of the compounds above, these have an aryl thioether with sulfur outside any ring:
SMILES	UUG fidelity	Env fusion inh	Rce1 inh	PABP FP inh	CSC inhib	MT1-MMP act inh	MT1-MMP act inh RFP	eIF4H inh	others
N#Cc1ccccc1CSc1nc2ccc(NC(=O)c3ccccc3C(=O)O)cc2s1	x	14	x	11	-7	-1	0	-1
Cc1cc(NC(=O)CSc2ccc(-c3ccc(F)cc3)nn2)no1	-11	-17	i	-8	-1	7	3	-3

Going on with the list.
SMILES	UUG fidelity	Env fusion inh	Rce1 inh	PABP FP inh	CSC inhib	MT1-MMP act inh	MT1-MMP act inh RFP	eIF4H inh	others
O=C1CCC(=O)N1c1nc2nc(-c3ccccc3)cc(=O)n2[nH]1	-7	x	i	-2	-5	-2	4	10
Cc1ccc(-c2c(C(=O)N/N=C/c3c[nH]c4ccccc34)nnn2-c2nonc2N)cc1	-4	-2	i	-3	13	-8	-2	-9
O=C(O)C1CCC(C(=O)O)O1 (stereo unspecified)	-21	-22	x	x	x	-3	0	x
CC1=NN(c2ccccc2)C(=O)/C1=C\c1cc(C)n(C)c1C	-11	6	i	0	9	8	6	5
CCN(Cc1ccc2c(c1)OCO2)C(=O)CSc1nc(C)nc2sc(C)c(C)c12	-8	14	x	x	x	-1	-2	x
Cc1ccc(N2CCN(c3ccc(C)cc3)C2c2ccccn2)cc1	-30	x	i	1	-5	0	0	-5
CCN(CC)C(=O)CSC(Nc1ccc(F)cc1)=C(C#N)C#N	-19	-7	i	13	-1	-41	28	27
O=C(Nc1nc(COc2ccccc2)cs1)C1CCC1	-23	-59	i	-10	0	-2	-13	-3
COC(=O)CN1C2(C#N)CCCCC2CC2CCCCC21C#N (stereo unspecified)	-13	x	i	0	0	-3	5	4
CC1CCCN(C(=O)c2cn(-c3ccccc3)nc2-c2cccnc2)C1 (stereo unspecified)	-15	-9	i	x	-1	-6	0	x
COc1ccc(CN2CCNC(=O)C2CC(=O)NC2CCCCC2)c(OC)c1 (stereo unspecified)	5	-21	i	6	-4	-4	-2	-6
Fc1ccc(-c2nc3ccc(Br)cn3c2Cc2ccccc2)cc1	-17	-16	x	x	x	-4	-10	x

Three entries from above, sorted by molecular weight, lowest first.
SMILES	UUG fidelity	Env fusion inh	Rce1 inh	PABP FP inh	CSC inhib	MT1-MMP act inh	MT1-MMP act inh RFP	eIF4H inh	others
O=C1CCC(=O)N1c1nc2nc(-c3ccccc3)cc(=O)n2[nH]1	-7	x	i	-2	-5	-2	4	10
COC(=O)CN1C2(C#N)CCCCC2CC2CCCCC21C#N (stereo unspecified)	-13	x	i	0	0	-3	5	4
CCN(CC)C(=O)CSC(Nc1ccc(F)cc1)=C(C#N)C#N	-19	-7	i	13	-1	-41	28	27

(listing goes on)
SMILES	UUG fidelity	Env fusion inh	Rce1 inh	PABP FP inh	CSC inhib	MT1-MMP act inh	MT1-MMP act inh RFP	eIF4H inh	others
N#Cc1cccc(-c2nnc(SCc3ccccc3C#N)o2)c1	x	-296	i	10	13	-2	-1	8
N#C/C(=C\c1ccc(-c2ccc(C(=O)O)cc2)o1)C(=O)Nc1ccc(F)cc1	-12	11	i	70*	-10	-10	-2	87*
Cc1cc(C)n2nc(CC(=O)NNC(=O)COc3ccccc3)nc2n1	23	-14	i	x	-12	-4	5	x
CCc1c(C(=O)NC2CCCC2)csc1C	-17	5	i	3	-6	-5	-1	-8
Cc1cc(NC(=O)c2cc([N+](=O)[O-])ccc2Cl)no1	-21	0	i	9	-11	1	-2	-5
CC(C)NC(=O)Nc1ccc2c(c1)C(=O)N([C@H](C)CO)C[C@H](C)[C@@H](CN(C)C(=O)NC1CCCCC1)O2	-26	-16[16.7 µM]	x	x	-19	0	1	x
COc1ccc2sc(N3C(=O)C4CC=C(C)CC4C3=O)nc2c1 (stereo unspecified)	-14	x	i	-5	-14	6	1	5
CC12CCC(=O)N1C(C(=O)Nc1nc3ccc(F)cc3s1)CS2 (stereo unspecified)	5	x	x	x	4	-4	2	x
CCC(C)(C)NC(=O)C(c1ccc(OC)cc1)N(C(=O)CCC(=O)Nc1cc(C)on1)c1ccccc1F (stereo unspecified)	-6	11	i	14	4	1	-1	8
CCOC(=O)c1c(/N=C/N(C)C)sc(C)c1C	-3	6	i	-2	-8	0	3	-1
CCOc1cc(C2Nc3ccccc3NC3=C2C(=O)CC(C)(C)C3)ccc1OC(C)=O (stereo unspecified)	-2	-15	i	0	6	1	2	-2
COc1cccc(C(=O)NCCSc2c(C)[nH]c3ccccc23)c1OC	11	4	i	4	-17	-1	-8	1
Cc1cc(C)n(-c2nnc(N3CCN(c4ccc(F)cc4)CC3)nn2)n1	x	-1	i	-5	0	10	-4	-6
Cn1c(=O)c(C(=O)CSc2nnc(Nc3ccccc3)s2)c(N)n(Cc2ccccc2)c1=O	-7	x	i	3	-5	3	-5	-10
COCC(C)NC(=O)C1CC(c2cccc(Br)c2)=NO1 (stereo unspecified)	3	-51	i	-8	-14	-1	1	0
N#Cc1cn(Cc2ccccc2)c(=O)[nH]c1=O	x	-1	i	-2	14	5	-1	5
CCOC(=O)N1CCN(C(=O)CSc2ccc(-c3ccccc3)nn2)CC1	x	-4	i	-3	8	0	-3	-9
C=CCOc1ccc(Br)cc1/C=N/O	10	x	i	-4	-11	-2	0	2
COc1ccccc1CCN=C(N)NS(=O)(=O)c1ccc(C)c(C)c1	-17	41	i	1	-3	7	2	-12
COc1ccc(C(CC(=O)O)NC(C)=O)cc1OC (stereo unspecified)	-12	x	i	2	-1	2	-2	10
CC1=CC(C)(C)N(S(=O)(=O)c2ccc(C)cc2)c2ccccc21	-6	x	i	1	x	8	-11	2
COc1ccc([N+](=O)[O-])c(OC)c1C(=O)NC(=O)Nc1c(F)cc(F)cc1F	x	-6	x	-2	-8	2	0	8
O=C(COC(=O)c1cc(=O)[nH]c2ccccc12)c1ccccc1	-20	5	i	24	2	2	1	28
c1cc(C2OCCN2CC2COC3(CCCC3)O2)ccn1 (stereo unspecified)	-11	x	i	-2	2	-2	1	2
COc1ccc(NC(=O)COC(=O)c2ccc(-n3nc(C)cc3C)cc2)cc1OC	-5	-12	x	x	x	2	-1	x
COC(=O)CC1=C(C(=O)OC)C(c2ccncc2)C(C#N)=C(N)O1 (stereo unspecified)	-7	x	i	105*	-11	0	4	109	eIF4H inh retest=30;PABP FP inh retest=67*
O=C(COc1ncnc2ccccc12)Nc1cc(S(=O)(=O)N2CCOCC2)ccc1Cl	-14	22	i	-7	-12	3	3	-3
Cc1nnc(NC(=O)CSc2cn(Cc3ccccc3)c3ccccc23)s1	10	13	i	2	5	2	-1	-11
CCc1nc2ccc(C(=O)N(CC)CCN(C)C)cn2c1N(C)C(=O)C1CCCCC1	-7	7	x	x	x	-2	3	x

Of the compounds above, six contain an NH in an aromatic ring:
SMILES	UUG fidelity	Env fusion inh	Rce1 inh	PABP FP inh	CSC inhib	MT1-MMP act inh	MT1-MMP act inh RFP	eIF4H inh	others
COCCOC(=O)c1[nH]c2c(c1C)C(=O)CC(c1cc(OC)ccc1OC)C2 (stereo unspecified)	-24	-169	i	-13	54	-6	-17	5
O=C1CCC(=O)N1c1nc2nc(-c3ccccc3)cc(=O)n2[nH]1	-7	x	i	-2	-5	-2	4	10
Cc1ccc(-c2c(C(=O)N/N=C/c3c[nH]c4ccccc34)nnn2-c2nonc2N)cc1	-4	-2	i	-3	13	-8	-2	-9
COc1cccc(C(=O)NCCSc2c(C)[nH]c3ccccc23)c1OC	11	4	i	4	-17	-1	-8	1
N#Cc1cn(Cc2ccccc2)c(=O)[nH]c1=O	x	-1	i	-2	14	5	-1	5
O=C(COC(=O)c1cc(=O)[nH]c2ccccc12)c1ccccc1	-20	5	i	24	2	2	1	28
